Assay outcomes: PubChem, several laboratories
Mtb hypoxia rep – inhibitors of hypoxia-regulated fluorescent reporter in Mycobacterium tuberculosis | M. tuberculosis hypoxia-regulated fluorescent reporter, fluorescence | fluorescence inhibition, % (test concentration not listed) | 0.1% of 300,000 active;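 active = 35 to 45% if threefold the growth effect, above 45% if 1.5-fold the growth effect; inactive = the rest, general growth blockers included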;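 note: wells of about 50 µL received 100 nL stock; 0% = vehicle wells and 100% = reference inhibitor wells; whole bacteria with a GFP reporter of the hypoxia response; strong numbers were not always called active; many hits fall short of the cut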
ugtP null kill – growth inhibition of S. aureus ugtP deletion strain | growth inhibition, % (concentration not given with the values) | S. aureus RN4220 ugtP deletion, OD600 growth, 16 h; some inactives read as strong as hits | 0.54% of 330,000 active;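 active = z-score under -3 and OD600 up to 0.15 on both plates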;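 note: plate controls were untreated wells for no effect and antibiotic for full effect; wells of about 80 µL received 100 nL stock; the first replicate is given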
BJeLR lethal – BJeLR cell viability loss. BJeLR (HRASV12) viability, CellTiter-Glo ATP luminescence, 48 h; reference of the scale not given here. 0.17% of 300,000 active. inhibition, % (concentration not given with the values);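 active = replicate mean above 50%; inconclusive = above 50% but judged a plate artefact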;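 note: 50 nL library stock added to about 25 µL; numbers are from one replicate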
Autofluor counter – flagged as autofluorescent in microsphere protease counterscreen; compound autofluorescence counterscreen, microsphere flow cytometry; active compounds read high; fluorescence intensity (concentration not given with the values); 3.1% of 360,000 active; AID 624483;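 active = at least 3 SD above the mean of all compounds, about 16000 in these data; inconclusive = too few beads counted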;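 note: 100 nL of 1 mM stock went into each well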
Sa RN4220 lethal – kills Staphylococcus aureus RN4220; S. aureus RN4220 growth, OD600, 16 h; inhibition, % (concentration not given with the values); 0.33% of 330,000 active; AID 1259311;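 active = z-score of -3 or lower and OD600 up to 0.18 on both plates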;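 note: plate controls were untreated cells for no effect and reference antibiotic for full effect; stock transfer was 100 nL into about 80 µL; one replicate is shown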
PrP 5UTR inh – suppresses PrP 5' UTR mRNA reporter expression; cell-based PrP 5' UTR mRNA reporter, plate reader; inhibition, % (test concentration not listed); 0.35% of 340,000 active; AID 488862;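 active = every replicate at 50% or more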;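 note: 0 = median of the neutral control wells; tested in H4 reporter cells; numbers are from one replicate; inactives centre near -14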
Mtb hypoxia rep growth – recorded beside Mtb hypoxia rep, whose call it bears; growth inhibition, %; measured here: M. tuberculosis growth (absorbance);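 0% = vehicle and 100% = reference antibiotic; read after six days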
* marks the source's active call; other numbers are inactive results; ? = inconclusive; . = not tested or not shown.

Start of the data: the first 2 records as a preview:
SMILES	Mtb hypoxia rep	Mtb hypoxia rep growth	ugtP null kill	BJeLR lethal	Autofluor counter	Sa RN4220 lethal	PrP 5UTR inh
O=C(NCCN1CCOCC1)C(=O)NCC1OCCN1S(=O)(=O)c1ccccc1 (configuration not stated)	2	3	3	-2	5914	2.9	5
CN(/C(=N\S(=O)(=O)c1ccccc1)C(F)(F)F)c1ccccc1	.	.	.	3	2379	.	-12

Results (from the top)
SMILES	Mtb hypoxia rep	Mtb hypoxia rep growth	ugtP null kill	BJeLR lethal	Autofluor counter	Sa RN4220 lethal	PrP 5UTR inh
O=C(NCCN1CCOCC1)C(=O)NCC1OCCN1S(=O)(=O)c1ccccc1 (configuration not stated)	2	3	3	-2	5914	2.9	5
CN(/C(=N\S(=O)(=O)c1ccccc1)C(F)(F)F)c1ccccc1	.	.	.	3	2379	.	-12
CN1CC[C@]23c4c5ccc(O)c4OC2C(O)C=CC3[C@H]1C5 (some centres not stated)	.	.	-4	.	6515	1.9	3
CCCNC(=S)Nc1ccccc1	4	-8	10	-9	4414	-0.4	-27
O=C(c1ccccc1)c1cc(-c2ccccn2)c(N2CCOCC2)s1	7	10	-5	8	25293*	5.4	-14
COc1ccc(-c2c(-c3ccsc3)oc(=O)c3cc(OC)c(OC)cc23)cc1	0	11	16	.	2995	5.3	-1
CCNC(=O)CCSc1nnc(-c2ccncc2)o1	6	-3	6	-12	4472	0.3	-4
CC(=O)Nc1ccc(S(=O)(=O)N2CCN(Cc3cccc([N+](=O)[O-])c3)CC2)cc1	-2	-4	-3	6	3601	0.8	-10
O=C1C=C(N(CCO)Cc2ccccc2)c2ccccc2C1=O	1	10	6	0	4327	9.3	-33
Cc1ccc(S(=O)(=O)NNC(=O)/C=C/c2cccc(F)c2)cc1	1	3	5	5	3791	2.2	-11
COc1ccc(OC)c(NC(=O)CSc2nnnn2C2CCCC2)c1	0	3	11	-8	5127	2.4	-10
COc1ccc(OC)c(NC(=O)CSc2nc(-c3ccccc3)cc(=O)[nH]2)c1	1	-1	3	-7	3928	3.5	-23
CC1CCCCN1C(=O)CSc1nnc(-c2c[nH]c3ccccc23)o1 (configuration not stated)	9	10	4	-11	7527	5.6	-40
Cc1nc(-c2cccc(NC(=O)c3cccs3)c2)cs1	.	.	16	3	3018	3.2	-24
Cc1ccc(Cn2c(SCC(=O)Nc3cc(C)on3)nc3ccccc3c2=O)cc1	.	.	-10	7	3060	2.1	-3
O=c1c2c(-c3cccs3)csc2ncn1-n1cccc1	2	10	2	-5	10568	5.1	-38
O=C(NCc1ccco1)C1CCN(S(=O)(=O)N2CCOCC2)CC1	3	6	4	15	11237	3.3	-16
CCC1COCCS(=O)(=O)N1Cc1ccccc1F (configuration not stated)	5	-1	-1	2	3966	3.0	-3
Cc1cn2c(-c3cccnc3)nnc2s1	6	18	-12	3	19239*	7.2	4
CCN(CC)C(=O)C1CCN(S(=O)(=O)c2ccc(-n3cnnn3)cc2)CC1	-1	3	2	14	4604	5.5	0

Retrieved one by one from above:
SMILES	Mtb hypoxia rep	Mtb hypoxia rep growth	ugtP null kill	BJeLR lethal	Autofluor counter	Sa RN4220 lethal	PrP 5UTR inh
CCNC(=O)CCSc1nnc(-c2ccncc2)o1	6	-3	6	-12	4472	0.3	-4
CC(=O)Nc1ccc(S(=O)(=O)N2CCN(Cc3cccc([N+](=O)[O-])c3)CC2)cc1	-2	-4	-3	6	3601	0.8	-10
CN(/C(=N\S(=O)(=O)c1ccccc1)C(F)(F)F)c1ccccc1	.	.	.	3	2379	.	-12

Further results
SMILES	Mtb hypoxia rep	Mtb hypoxia rep growth	ugtP null kill	BJeLR lethal	Autofluor counter	Sa RN4220 lethal	PrP 5UTR inh
CCCCNS(=O)(=O)c1ccc2nc(-c3cccnc3)cc(C(=O)NCCOC)c2c1	5	-2	1	-4	3677	7.5	1
Cc1ccc(-n2nc(C(=O)c3ccccc3)n3c(=O)cc(-c4ccccc4)nc23)cc1	1	8	-9	6	3150	-10	-20
CCOC(=O)C1=CCC2c3c(c4ccc(OC)cc4n3C)C(=O)C1N2S(=O)(=O)c1ccc(C)cc1 (configuration not stated)	5	5	-21	.	.	-2.3	.
CSc1nsc(SC)c1CO	-2	2	6	-9	3790	3.9	-11
Cn1c(=O)[nH]c(=O)c2c1nc(N1CCN(C(=O)c3ccco3)CC1)n2CCCSc1ncccn1	-1	-2	10	.	4054	1.9	-11
COc1cc(/C=C2\SC(=S)N(CC(=O)NC(C)(C)C)C2=O)cc(OC)c1OC	7	4	0	-19	2604	5.2	4
COCCn1c(SCC(=O)NCC(c2ccccc2)N(C)C)nc2sc3c(c2c1=O)CCC3 (configuration not stated)	-8	8	-2	.	?	3.5	-15
CC(=NNC(=O)C(O)c1ccccc1)c1ccc(Br)s1 (configuration not stated)	9	3	4	.	.	2.1	.
CCOc1ccc(-c2cccc(NC(=O)c3ccco3)c2)nn1	5	0	3	3	5580	2.3	-16
CC1CC=CC2C1C(=O)N(Cc1ccccc1)C2c1ccc2ccccc2c1Br (configuration not stated)	-7	6	97*	.	.	88*	.
O=c1[nH]c(CSc2ncnc3sc(-c4ccccc4)cc23)nc2ccccc12	12	7	10	5	4575	3.1	-6
O=C(CSc1ncnc2c1oc1ccccc12)NC1CCCC1	6	0	-10	5	4560	-0.2	-10
O=C(COC(=O)c1cc(=O)[nH]c2ccccc12)NC1CCCCCCC1	14	1	5	5	3877	5.5	4
Cn1c(C(=O)N2CCC(C(N)=O)CC2)cc2c(=O)n(C)c3ccccc3c21	.	.	3	7	5557	2.6	-38
CCOCCCNS(=O)(=O)c1ccc(NC(=O)c2ccccc2)cc1	2	1	1	0	7988	-4.0	-25
CCOP(=O)(c1c(F)c(F)c(F)c(F)c1F)C(O)c1ccccc1 (configuration not stated)	.	.	1	-11	4936	-2.0	-9
COc1ccc(OC)c(C=NNC(=O)c2cc3c(OC)cc(OC)cc3[nH]2)c1	15	-1	-9	.	.	0.9	.
Clc1ccccc1/C=C/C=NNc1nc(N2CCOCC2)nc(N2CCOCC2)n1	-9	8	-7	.	.	4.6	.
CCc1c(C(=O)N/N=C/c2ccc(OCc3ccc(F)cc3)c(OC)c2)nnn1-c1nonc1N	.	.	.	18	3600	.	-13
O=c1c(C=Nc2cccc(C(F)(F)F)c2)c[nH]n1-c1cccc(Cl)n1	7	11	0	6	4043	0.3	-9
COCC(=O)NN=Cc1cccc(OC)c1OC/C=C/c1ccccc1	7	11	5	.	.	0.2	.
COc1ccc(CSCCc2n[nH]c(=S)n2-c2ccccc2)cc1	-5	5	4	.	5128	15	-8
CC(C)(C)C1COC(=O)CCCCC=CCC(CC(=O)NCCO)C(=O)N1 (configuration not stated)	1	-6	6	.	.	5.1	.
Cc1cccnc1NC(=O)c1ccc(NS(=O)(=O)c2ccc3[nH]c(=O)[nH]c3c2)cc1	7	1	6	-4	.	2.8	-13
Oc1ccc(/C=N/n2c(-c3ccco3)csc2=Nc2cccnc2)c(O)c1	.	.	.	14	8467	.	-19
O=C(CSc1nnc(SCc2ccccc2Cl)s1)NN=Cc1c[nH]c2ccccc12	16	5	-16	.	.	0.1	.
Cc1cc(C)cc(N2CN=c3sc(=Cc4ccco4)c(=O)n3C2)c1	6	-1	1	.	.	0.2	.
COc1ccc(OC)c(NC(=O)CSc2ccc3nnc(-c4cccnc4)n3n2)c1	5	12	5	-2	4421	7.1	-18
CC(CC(=O)Nc1ccc2c(c1)OCCO2)=NNC(=O)c1ccccc1F	3	10	3	.	.	3.5	.
CCOc1ccc(S(=O)(=O)N2CCCCC2)cc1NC(=O)C1COc2ccccc2O1 (configuration not stated)	-10	-12	-10	.	4145	-0.6	8
Cc1onc(-c2ccccc2)c1C(=O)OCC(=O)Nc1ccc(C#N)cc1	2	7	-4	.	8737	-3.9	2
COc1ccc(N2CCN(C(=O)c3ccc4c(c3)OCO4)CC2)cc1	6	5	1	-7	2628	-20	2
CC(=O)OCC1=C(C(=O)O)N2C(=O)C(NC(=O)Cn3nc(C(F)F)c(Cl)c3C)C2SC1 (configuration not stated)	.	.	96*	3	4176	99*	-20
N=c1c(S(=O)(=O)c2ccc(Cl)cc2)cc2c(=O)n3ccccc3nc2n1C1CCCC1	-3	-6	-6	-7	6351	0.7	-11
C=CCn1c(SCC(=O)N2CCN(c3ccc(F)cc3)CC2)nnc1-c1cccs1	.	.	17	-3	6314	2.2	-10
Cc1ccc(NC(=O)CN(C)Cc2cccs2)cc1Cl	12	6	5	6	3947	0.0	-5
C=CCNS(=O)(=O)c1cccc(C(C)=O)c1	15	2	5	0	1983	1.5	-3
C=CCC(NCc1ccco1)c1ccc(OC)cc1OC (configuration not stated)	.	.	-8	1	.	-3.3	.
CC(C)CCN(C(=O)c1csnn1)C(C(=O)NC1CCCCC1)c1ccc(F)cc1 (configuration not stated)	5	-5	5	-9	3000	0.8	-23
CCCCOC(=O)Oc1ccc2c(=O)c(Oc3cccc(C)c3)coc2c1	4	-2	16	-1	1936	13	-16
CCCCCc1cc(=O)oc2c(C(CCN3CCN(c4ccccc4)CC3)c3ccc(N(C)C)cc3)c(OC)cc(OC)c12 (configuration not stated)	-2	5	3	-11	3918	7.7	-13
CCOC(=O)c1ccc(N2C(=O)C(CC(N)=O)N(NC(=O)c3cccc(F)c3)C2=S)cc1 (configuration not stated)	15	5	8	-1	3926	13	-15
CC(=O)c1cn(CCOc2cc(C)ccc2C)c2ccccc12	-1	9	-5	11	3498	4.7	-9
CN(C)c1ccc(CNC(=O)C2CCC(CNc3c(N4CCCCC4)c(=O)c3=O)CC2)cc1 (configuration not stated)	-11	13	10	6	4356	2.6	-4
COc1ccc(C2CC(=O)C3=C(C2)Nc2ncnn2C3c2ccccc2C)cc1 (configuration not stated)	-11	-11	-8	-7	4321	-0.2	6
CC(=O)Nc1ccc(N(CC(=O)NC2CCCCC2)C(=O)Cn2nnc(-c3ccccc3)n2)cc1	10	5	-1	3	4051	-2.6	-16
Cc1ccc(S(=O)(=O)N(C)CC(=O)O/N=C(\N)c2cccnc2)cc1	1	2	1	4	4875	0.7	-7
COc1cccc(NC(=O)CN(C)C(=O)C2=COCCO2)c1	4	4	1	.	4205	4.8	6
S=C(NCCC(c1ccccc1)c1ccccc1)Nc1ccccc1Cl	.	.	36	-7	5849	-15	-15
COc1ccccc1N1C(=O)NC(=O)/C(=C/c2ccc([N+](=O)[O-])s2)C1=O	14	6	1	7	.	3.0	.
CCN(CC)CCCN(Cc1cc2cc3c(cc2[nH]c1=O)OCCO3)C(=O)Nc1ccc(F)cc1	6	13	-6	4	3227	-5.1	-10
c1ccc(CN=C2NN=C(c3ccccc3)CS2)cc1	.	.	-79	14	3239	-5.3	-95
CCSc1nc2sccc2c(=O)n1-c1ccccc1	-2	-4	10	-5	5770	13	-4
Cn1c(=O)[nH]c(=O)c2c1nc(N1CCCCCC1)n2CC(N)=O	4	6	-8	-4	2810	-19	-21
COc1ccnc(Oc2cccc(C(F)(F)F)c2)c1C(=O)N/C=N/OCc1ccccc1F	3	-2	-2	3	4764	7.1	-30
CCOC(=O)n1ccc(C(=O)Nc2ccccc2F)n1	2	1	10	2	?	5.8	-29
CCC1CCCCN1C(=O)CCn1c(=O)oc2ccccc21 (configuration not stated)	23	22	-7	-12	6327	-8.3	-53
O=C(c1cccc(OCc2ccccc2)c1)N1CCOCC1	10	1	0	1	4569	3.5	-18
Cn1c(=O)c2c(nc(CO)n2C)n(C)c1=O	2	2	4	-2	3634	5.2	-19
COc1cccc(/C(=N/O)C2CC2c2ccc(Cl)cc2)c1 (configuration not stated)	.	.	.	0	3471	.	-16

Next part.
SMILES	Mtb hypoxia rep	Mtb hypoxia rep growth	ugtP null kill	BJeLR lethal	Autofluor counter	Sa RN4220 lethal	PrP 5UTR inh
Cc1cccc(C)c1N(CC(=O)NN=C1CCCCCC1)S(C)(=O)=O	12	2	-3	-1	2929	5.1	-21
Cn1nc2c3cc(F)ccc3n(Cc3ccc(F)cc3)cc-2c1=O	-2	-9	3	-7	2988	1.1	-9
CC(=NNC(=O)c1c(C)nc2ccccn12)c1cccc([N+](=O)[O-])c1	-8	5	-7	.	.	-1.6	.
Cc1cccc(Oc2ccccc2NC(=O)CSCC(=O)Nc2cc(C)on2)c1	8	4	6	.	?	3.6	-33
OCCN1CCN(C(=S)Nc2ccc(SC(F)F)cc2)CC1	11	8	-5	4	6037	6.5	-21
N=c1c(S(=O)(=O)c2ccc(Cl)cc2)cc2c(=O)n3ccccc3nc2n1CC1CCCO1 (configuration not stated)	10	-10	5	-8	5076	0.4	-8
N#Cc1ccc(Oc2cccc3cccnc23)c([N+](=O)[O-])c1	3	-5	20	10	3002	2.3	-12
